Screening results from PubChem.
TRPML1 inh – qHTS for Inhibitors of the Human Mucolipin Transient Receptor Potential 1 (TRPML1). TRPML1-inducible cells, Ca2+ dye fluorescence, FDSS; stronger effect = lower value; inhibition of EC80 agonist-evoked calcium signal. activity change, negative = inhibition, % (concentration not given with the values). 390,000 tested, 0.02% active. AID 624415, 2012; in the data active means activity change below about -50%; inconclusive means about -30% to -50%; inactive means above about -30%;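 also: stimulus is agonist 54-4 at its EC80 concentration; % is scaled to controls: 0 for no effect and ±100 for the full control effect; compound concentration not given in the record; the text of the record puts the active cut at -80%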
Target sequence (Q9GZU1 whole entry, looked up): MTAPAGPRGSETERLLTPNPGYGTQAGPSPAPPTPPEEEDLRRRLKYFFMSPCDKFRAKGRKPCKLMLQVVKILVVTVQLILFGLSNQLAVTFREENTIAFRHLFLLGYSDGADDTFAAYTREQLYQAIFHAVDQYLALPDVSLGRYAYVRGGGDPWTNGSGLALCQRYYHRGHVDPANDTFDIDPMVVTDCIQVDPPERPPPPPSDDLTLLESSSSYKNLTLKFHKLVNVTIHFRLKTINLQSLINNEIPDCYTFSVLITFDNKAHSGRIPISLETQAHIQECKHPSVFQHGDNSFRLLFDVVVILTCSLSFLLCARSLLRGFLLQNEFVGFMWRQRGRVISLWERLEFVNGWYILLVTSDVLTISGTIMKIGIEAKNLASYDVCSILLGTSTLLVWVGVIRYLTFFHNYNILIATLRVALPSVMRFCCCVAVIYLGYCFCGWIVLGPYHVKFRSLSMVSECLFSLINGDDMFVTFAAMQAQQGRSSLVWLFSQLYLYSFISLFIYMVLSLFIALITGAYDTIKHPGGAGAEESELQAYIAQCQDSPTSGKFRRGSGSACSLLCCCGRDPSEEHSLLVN
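TRPML1-DL cells, Tet-induced overnight (~16 h, 37 °C) at 1,500 cells/well, were loaded with Ca8 no-wash dye plus quencher for 45-90 min at room temperature. Compounds were pinned during FDSS kinetic reading; agonist 54-4 at EC80 (4 uM final) then added.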
Sfp PPTase inh – qHTS Assay for Inhibitors of Bacillus subtilis Sfp phosphopantetheinyl transferase (PPTase). Biochemical Sfp PPTase activity, qHTS. Potency, µM, for inactives: max response, negative = inhibition, usual class: inhibitors. 310,000 tested, 3.5% active. AID 1490, 2009; active = well fitted inhibition curve with a large enough effect; inconclusive = small, poorly fitted or top-dose-only effect, or another doubt; inactive = no such curve, though single readings can be large or run the other way;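 also: the enzyme is Sfp with the accession as filed and its product quenches rhodamine fluorescence; potency is read from the fitted curve at half-maximal effect; 0% = enzyme reaction without inhibitor and -100% = no enzyme wells; top concentration of the series not given in the record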
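With Hepes-Na pH 7.6 buffer containing 10 mM MgCl2, Sfp (15 nM) modified BHQ-2-YbbR (12.5 uM) using rhodamine-CoA (5 uM). Two reads 30 minutes apart at 525/598 nm yielded each well's rate.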
PINK1 modulator – A Quantitative High throughput Screen to Identify Chemical Modulators of PINK1 Expression; PINK1 immunofluorescence, high-content cytometry, 24 h; Potency, µM (top dose mostly 76.6 µM), inactives show at the top dose activation (PINK1 increase), actives largely listed as activators; 410,000 tested, 0.2% active; AID 624263, 2012; active = well fitted activation curve with a large enough effect; inconclusive = small, poorly fitted or top-dose-only effect; inactive = flat fitted curve, though single readings scatter; cell line not stated here;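 also: potency is read from the fitted curve at half-maximal effect; % of control where 0% means no effect; nearly all actives have a fitted effect of over 65% in size; a mitochondrial uncoupler was the plate control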
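Fluorescence from anti-PINK1 antibody, together with nuclear and cell stains, was scanned on a laser-scanning cytometer. Before staining, stable-line cells were incubated 24 hours with compounds at 5 concentrations; primary antibody 12 h at 10 degrees C.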
Menin-MLL FL inh – qHTS Assay for Inhibitors Targeting the Menin-MLL Interaction in MLL Related Leukemias: Competition With Fluorescein Labeled MLL-derived Peptide; Fluorescence polarization, fluorescein-MLL peptide displacement from menin; FP activity change, % at 61.4 µM; 290,000 tested, under 10 active; AID 1766, 2009; inconclusive = falling polarisation curve, or a change in total fluorescence; inactive = total fluorescence flat and polarisation flat or rising; no compound was filed as active; the % refers to the polarisation; negative = inhibition;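 also: % of control where 0% means no effect; inhibitors lower the polarisation; unlabelled MLL peptide was the positive control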
TRPV1 potentiator – HTS Assay for Compounds that Act as Potentiators of the Vanilloid Receptor 1; Transient receptor potential cation channel subfamily V member 1 (Homo sapiens), Q8NER1; TRPV1-expressing cells, Fluo-8 calcium influx, capsaicin EC20 potentiation; host cell line not named in the record; control for the full effect not named in the record; potentiation, % at 8.33 µM; 320,000 tested, 0.02% active; AID 540277, 2011; active means potentiation above 80%; inconclusive means 30% to 80%; inactive means below 30%; also: 0% is about no effect
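Fluo-8 calcium influx in TRPV1-expressing cells, kinetic read (ex 480/em 520 nm). Compound added and read 3 min for agonist activity, followed by capsaicin at EC20 final and 2 min further read for enhancement.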
TRPML1 agonist – qHTS for Agonists of the Human Mucolipin Transient Receptor Potential 1 (TRPML1) | 410,000 tested, 0.12% active | activation, % (test concentration not listed) | AID 624414, 2012 | TRPML1-expressing cells, Ca2+ dye fluorescence, FDSS; host cell line not named in the record; reference of the full effect not given here; in the data active = activation above about 50%; inconclusive = about 30% to 50%; inactive = below about 30%; also: 0% is about no effect; the text of the record puts the active cut at 80%
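Tet-induced TRPML1-DL cells, 1,500 per well, cultured overnight, were loaded with a no-wash Ca2+ dye for 45–90 min. Calcium fluorescence was recorded on the FDSS for 110 s after compound addition, before the EC80 agonist (4 uM 54-4) was added.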
ClpP mod – qHTS Assay for Activators of ClpP | ATP-dependent Clp protease proteolytic subunit (Bacillus subtilis (strain 168)), P80244 | purified B. subtilis ClpP, FRET peptide cleavage, 20 min | Potency, µM (series often up to 57.5 µM), for inactives: top-dose activity change, negative = active | 340,000 tested, 1.9% active; active = well fitted falling curve with a large enough effect; inconclusive = small, poorly fitted or top-dose-only effect; inactive = no such curve, though single readings can be large or run the other way; also: potency is read from the fitted curve at half-maximal effect; the source files actives as falling curves though it sought activators and does not explain the sign; nearly all actives have a fitted effect of over 65% in size; many hits overshoot -100%
Target sequence (P80244 whole entry, looked up): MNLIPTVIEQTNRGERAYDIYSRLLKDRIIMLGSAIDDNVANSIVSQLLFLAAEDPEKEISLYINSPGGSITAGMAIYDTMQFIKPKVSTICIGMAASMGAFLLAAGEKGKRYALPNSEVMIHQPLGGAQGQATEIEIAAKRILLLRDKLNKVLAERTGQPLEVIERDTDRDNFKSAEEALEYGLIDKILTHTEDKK
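ClpP 10 microg/mL final, pH 8 Tris/KCl buffer with BSA, glycerol, Tween-20; compound pinned in; FRET-FV substrate; RT 20 min; Ex320/Em430; ΔFRET vs ADEP 5.8 microM, DMSO, no enzyme.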
Starred values were filed as active, the others as inactive; ? = inconclusive; . = no result given; & = joins results of further samples; [ ] = remark or other dose.

SMILES	TRPML1 inh	Sfp PPTase inh	PINK1 modulator	Menin-MLL FL inh	TRPV1 potentiator	TRPML1 agonist	ClpP mod
COc1ccc(C(=O)Nc2cc(-c3nc4ncccc4o3)ccc2C)cc1Br	0	.	0.3%	.	.	-0.9	3.8%
C=CCc1cc(Cl)ccc1OCCOCCNCCOC	5	-17%	-0.9%	0.7	4	0.5	-2.5%
Cn1c(=O)c2c(nc(N3CCOCC3)n2CCCNC2=NCCC2)n(C)c1=O	-1	7%	-1.8%	4.4	6	-0.3	-0.6%
CCOc1ccc(NC(=O)[C@@H](NC(=O)OCc2ccccc2)[C@@H](C)CC)cc1	-2	1%	?	6.2	3	-0.6	-23%
COc1ccc(NC(C)=O)cc1NC(=O)CCn1c(=O)sc2ccccc21	2	4%	-1.2%[38.3 µM]	4.2	-9	2.1	-1.6%
Cc1ccc(NC(=O)CN(C)C(=O)C(C)N2CCN(Cc3ccccc3C)CC2)cc1 (configuration not stated)	7	.	0.5%	.	-3	1.0	-2.7%
COc1ccc(Br)cc1CN1C(=O)NC2(CCCCCC2)C1=O	-4	-4%	-1.6%	3.0	-14	3.5	.
CC(C)C[C@@H](CN1CCC[C@H]1CN1C(=O)C(=O)NC[C@@H]1Cc1ccccc1)N1C[C@H](Cc2ccccc2)N(CCc2ccccc2)C(=O)C1=O	.	.	-0.2%	.	.	-0.5	0.3%
CCOc1nonc1C(=N)/C(C(C)=O)=C(\C)O	8	6%	-0.1%	2.6	-10	-0.5	1.3%
COc1ccc(-n2cc(-c3ccccc3)c3c(N4CCOCC4)ncnc32)cc1	11	-7%	-1.7%	-4.9	-3	0.2	.
Cc1c(-c2ccnc3cc(C(=O)O)nn23)cnn1C	-6	1%	0.1%	2.4	-1	2.4	.
Nc1c2c(nc3c1CCCC3)CCCC2 (tested in a mixture with another compound)	13	13%	-0.6%	-5.3	0	0.3	.
CCn1c(=O)c(CCC(=O)N2CCOCC2)c(C)c2c(C)nn(-c3ccccc3)c21	0	-11%	-1.6%	.	-11	-1.2	4.0%
CC1CCCCN1C(=O)c1cc(-c2ccc(Cl)c(Cl)c2)on1 (configuration not stated)	32	-21%	10%	2.0	-2	1.2	-4.4%
O=C(Cc1c(O)c2ccccc2[nH]c1=O)NC1CCCCCC1	-1	-18%	0.7%	0.7	-1	0.2	20µM*
Cc1ccc(C=Nc2ccccc2C(N)=O)cc1	12	12%	6.1%[38.3 µM]	-2.0	-3	0.6	32µM*
CCOc1ccc(CCNC(=O)c2cc3n(n2)CCCN(Cc2ccc(C)cc2)C3=O)cc1OCC	-5	.	2.4%	.	.	1.4	2.8%
CCOc1ccc(CN2CCSCC2)cc1	17	-4%	2.3%	-0.6	4	-0.4	-2.8%
Cc1ccc(-c2n[nH]c3c2C(c2cccs2)N(c2ccc(Cl)cc2)C3=O)cc1 (configuration not stated)	-12	.	7.8%	.	.	1.9	3.3%
CC(=O)NC(Cc1c(F)c(F)c(F)c(F)c1F)C(=O)NCC(N)C(=O)c1ccccc1 (configuration not stated)	.	.	0.7%	.	.	-0.3	0.3%
Cc1ccc(S(=O)(=O)NCCC(=O)Nc2cccc(Cl)c2)cc1	2	7%	5.1%	0.4	25	2.7	1.5%
CN(c1ccccc1)S(=O)(=O)c1ccc(C(=O)Nc2nnc(-c3ccc(F)cc3)o2)cc1	0	12%	-0.4%	-0.3	5	24	-0.4%
C/C(=C/c1ccccc1)C(=O)N1CC(C)OC(C)C1 (configuration not stated)	11	14%	1.5%	2.2	-5	0.2	1.2%
O=C(Cn1cc(C(=S)N2CCOCC2)c2ccccc21)N1CCOCC1	3	9%	-2.1%	2.0	-33	-0.4	-2.3%
S=C(Nc1ccccc1Cl)N(CCCN1CCOCC1)Cc1ccccn1	-4	-2%	-1.4%	1.9	-26	0.3	.
COc1ccc(Oc2ncc3nc(CCc4ccccc4)c(=O)n(CCC#N)c3n2)cc1	.	7%	-0.8%	-2.1	.	.	.
Cc1cc(/C=N/NC(=O)c2cccs2)c(C)n1-c1cnccn1	-1	4%	1.5%	1.8	-4	-0.3	0.4%
N#CC1(NC(=O)COc2ccc3ccc(=O)oc3c2)CCCCC1	23	.	11%	.	9	0.0	35µM*
O=C(Nc1ccc2c(c1)OCCO2)C1CCN(c2nnnn2-c2ccccc2)CC1	21	-1%	3.5%	3.1	1	0.8	-2.1%
COc1cccc(NC(=O)C2(S(=O)(=O)c3ccc(Cl)cc3)CC2)c1	0	-3%	-0.9%	3.4	-16	0.8	.
O=C(NN1C(=O)C2C3C=CC(C4CC34)C2C1=O)c1ccc(Cl)cc1 (configuration not stated)	3	28%	4.9%	-0.8	1	-0.3	-8.1%
C=CCCCCc1nc2ccccc2c(=O)n1N	-5	0%	?	10	5	0.8	-2.1%
COc1cc(NC(=O)c2cccs2)c(C(=O)OCC(=O)c2cc(C)n(-c3ccc(F)cc3)c2C)cc1OC	3	-2%	-0.1%	5.8	6	-1.1	-20%
CC(=O)c1c(C)[n+]([O-])c2ccc3c(non3O)c12	8	18%	-0.4%	-1.5	14	0.2	0.8%
N#Cc1ccc(/C=C\c2nccc3c2[nH]c2ccccc23)cc1	-7	-16%	?	11	-2	4.0	.
COc1ccc(CN(C)C(=O)Cn2ccsc2=N)cc1OC	15	14%	2.3%	-0.4	7	0.4	.
CCCS(=O)(=O)Nc1cccc(-c2cn3ccsc3n2)c1	3	.	-4.4%	.	.	-0.2	-4.0%
CCOC(=O)C1=C(c2ccccc2)NC(=O)NC1c1cc(Br)c(O)c(OC)c1 (configuration not stated)	-1	-6%	-0.9%	-0.5	-1	1.3	-1.5%
COc1ccccc1C(=O)NCC(=O)N/N=C/c1ccc([N+](=O)[O-])cc1	-2	11%	4.9%	-3.7	-15	1.8	0.4%
C[C@@H]1Cc2c(O)c(O)cc(O)c2C(=O)O1	.	-9%	7.6%	2.0	-8	.	-4.1%
Cc1cc(C(C)(C)C)cc(S(=O)(=O)NCCc2ccncc2)c1C	-24	4%	13%	6.6	-16	0.0	-1.4%
CCCn1c(SCC(=O)N2CCCCC2)nnc1-c1ccco1	1	2%	1.1%	0.0	-5	0.0	-1.0%
COc1ccc(C)cc1S(=O)(=O)NCc1ccccn1	-1	.	0.7%	.	.	-0.5	0.5%
CC(=O)Nc1ccc(NC(=O)C(C)OC(=O)CNC(=O)c2ccc(-c3ccccc3)cc2)cc1 (configuration not stated)	16	.	2.4%	.	3	-0.3	-3.4%
CN(CCCNC(=O)c1cc2c(Cl)nc3ccccc3c2s1)Cc1ccccc1	1&-5	79µM*	-2.9%&-0.5%	-15	-15	0.4&-0.4	-2.8%
C#CCCc1cocc1/C=[N+](\[O-])c1ccc(C(=O)OCC)cc1	0	.	2.5%	.	-1	-0.3	-5.6%
Nc1nc(Cl)cc(N2CCCC2)n1	-1	2%	-0.2%	1.8	-13	0.4	.
COc1ccc(N(Cc2cc(=O)[nH]c3ccccc23)C(=O)C(C)C)cc1	-2	9%	-0.1%	6.7	-22	0.2	-16%
CC(=O)c1ccc(S(=O)(=O)N(C)CC(=O)Nc2cccc(S(=O)(=O)N3CCCC3)c2)cc1	-11	.	-1.2%	.	.	-0.6	-2.7%
COc1ccc(NC(=O)COc2cc(C)cc(C)c2)cc1S(=O)(=O)N1CCCCC1	23	.	4.6%	.	6	1.0	.
COc1ccccc1CN1C(=S)SC(C)(C)C1NO (configuration not stated)	-8	14%	-0.1%	0.7	8	0.1	-1.3%
CC(=O)CC(CC(=O)NC1CCCCC1)c1ccccc1 (configuration not stated)	3	.	0.6%	.	.	1.9	1.5%
C/C(=N\O)C(=O)NCc1ccncc1	-3	5%	-0.2%	0.6	-3	-0.6	0.1%
N#Cc1nc(COc2ccc(Cl)cc2)oc1N1CCCC1	-6	-2%	1.6%	0.8	14	0.5	-2.2%
Cc1cccc(NC(=O)/C(=C\c2ccco2)NC(=O)c2ccccc2)c1	7	50µM*	.	8.1	4	-0.2	-1.1%
Cc1ccccc1COc1ccc(/C=C(\C#N)C(N)=O)cc1	-18	13%	9.9%	-0.4	-5	-1.8	0.1%
Cc1c(C(=O)Nc2cccc(C(F)(F)F)c2)sc2nc[nH]c(=O)c12	6	.	0.1%	.	.	1.4	-19%
COc1ccccc1/C=C/C1(C(=O)NC2CCCC2)CC(=O)N1c1ccc(F)cc1 (configuration not stated)	-4	3%	-1.1%	-1.5	-3	5.6	-15%
Cc1ccccc1N(CC(=O)N1CCCCCC1)S(C)(=O)=O	14	12%	-1.3%	-0.9	7	0.1	.
CN1C(=O)CSC1=NCC12CC3CC(CC(C3)C1)C2	-11	-2%	-1.8%[38.3 µM]	5.7	-8	-0.3	-1.8%
(further entries)
SMILES	TRPML1 inh	Sfp PPTase inh	PINK1 modulator	Menin-MLL FL inh	TRPV1 potentiator	TRPML1 agonist	ClpP mod
COc1ccc(Br)cc1/C=N/NC(=O)c1ccc2nc[nH]c2c1	11	12%	-1.5%	-3.6	21	-0.6	-11%
Cc1nn(CC(=O)NCCc2ccco2)c(=O)c2nn(-c3ccccc3)c(C)c12	-8	5%	2.3%	-0.8	14	0.6	-3.2%
CC(=O)N1CCN=C1SCc1cccc(Cl)c1	7	11%	0.0%	.	-23	0.7	-2.2%
CC(=O)CCC1CC(c2ccc(Cl)cc2)=NO1 (configuration not stated)	-3	.	1.2%	.	-40	0.4	-0.9%
O=C1C=C(NCc2ccccc2)CCC1	10	16%	1.9%	1.2	-8	-0.4	-0.8%
COCCN(Cc1ccccc1)C(=O)Cc1ccc(OC)c(S(=O)(=O)N2CCOCC2)c1	32	.	-0.7%	.	3	0.1	-12%
CCC(C(=O)Nc1ncccn1)(C(F)(F)F)C(F)(F)F	-2	11%	1.9%	-0.9	-14	-0.1	-6.1%
CC(C)OCCCNC(=O)c1cc(S(=O)(=O)N2CCc3ccccc32)cn1C	-9	2%	1.3%	3.1	23	-0.8	1.7%
CC(=O)N(C)C1(c2nnnn2CCOC(=O)Nc2ccc(Cl)cc2)CCCCC1	-5	29%	-1.9%	-0.8	?	0.5	-1.4%
